HNF4A DNA FP = change in binding of human HNF4 alpha to DNA. 360,000 compounds, 0.3% hits. activity change, % at 10 µM. P41235. HNF4a-FITC DNA binding, fluorescence polarization, 1 h. AID 1224865; in the data active = activity change above about 30%, passing the limit was not always enough;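 also: controls were the assay level and a saturating level of protein; the project sought stronger binding though the title names inhibitors; some compounds called inactive have numbers as strong as hits; positive values seem to mean higher polarization but the record does not say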
MLL AF4-AF9 inh = inhibitors of human MLL-AF4/AF9 interaction; inhibition, % at 10 µM; 350,000 compounds, 0.47% hits; AlphaScreen, biotin-AF4 peptide binding to FLAG-AF9;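 active = every replicate reaching a set inhibition limit, whatever the replicate mean, cut at about 25% in these data; inconclusive = mean inhibition reaches that limit but some replicates miss it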;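 also: 0% = plate neutral control median and 100% = total signal loss; the record names both 10 and 1 µM as test concentration; the first replicate is given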
Target sequence (P42568 whole entry, looked up): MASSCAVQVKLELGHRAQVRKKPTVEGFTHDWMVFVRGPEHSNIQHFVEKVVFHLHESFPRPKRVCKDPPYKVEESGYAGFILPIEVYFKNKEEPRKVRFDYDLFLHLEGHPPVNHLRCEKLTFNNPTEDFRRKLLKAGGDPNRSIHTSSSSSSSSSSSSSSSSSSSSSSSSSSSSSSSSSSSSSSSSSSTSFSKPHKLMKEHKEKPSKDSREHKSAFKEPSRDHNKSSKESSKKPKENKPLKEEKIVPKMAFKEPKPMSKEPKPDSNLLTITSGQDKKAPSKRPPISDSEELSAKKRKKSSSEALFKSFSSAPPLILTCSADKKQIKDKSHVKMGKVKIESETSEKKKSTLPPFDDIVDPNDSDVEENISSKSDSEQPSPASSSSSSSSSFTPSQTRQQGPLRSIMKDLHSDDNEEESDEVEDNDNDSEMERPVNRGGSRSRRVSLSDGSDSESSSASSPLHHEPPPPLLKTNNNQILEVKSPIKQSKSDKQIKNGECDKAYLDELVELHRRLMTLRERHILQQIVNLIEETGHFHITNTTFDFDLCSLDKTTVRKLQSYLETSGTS
Vif A3G = HIV-1 Vif–A3G interaction blockers – biochemical, TR-FRET, GST-Vif 1-94, biotin-A3G peptide, dose response retest, primary screen (AID 1117319); TR-FRET GST-Vif / biotin-A3G peptide binding; higher % means a stronger effect; test concentration not given here; strong numbers were not always called active; 260,000 compounds, 0.57% hits; one-dose inhibition, %; IC50 in µM for titrated hits;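 active = above the screen mean plus three standard deviations and confirmed in dose response; inconclusive = results disagree or hit not tested in dose response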;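 also: Vif residues 1-94 fused to GST binding biotinylated APOBEC3G peptide 110-148; 0% = full assay without inhibitor and 100% = GST in place of GST-Vif; retest series ran down from 100 µM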
E coli growth = inhibitors of Escherichia coli growth. OD600, 23 h; active compounds read low. OD600 absorbance (test concentration not listed). 330,000 compounds, 0.21% hits. AID 1053175;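 active = OD600 absorbance below the run mean of sample wells minus 3.6 SD, in any replicate, cut at about 0.56 in these data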;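 also: stock transfer was 300 nL into about 60 µL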
FGF22 binding = shifts melting point of recombinant human FGF22 | Q9HCT0 | 340,000 compounds, 1.5% hits | calls only at 9.99 µM | recombinant FGF22 thermal shift, SYPRO orange fluorescence; percent of sucrose octasulfate shift, DMSO zero | AID 651658;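 active = melting point raised past a set limit in the mean and every replicate; inconclusive = no clear call; three in four hits are not shown here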
Target sequence (Q9HCT0 whole entry, looked up): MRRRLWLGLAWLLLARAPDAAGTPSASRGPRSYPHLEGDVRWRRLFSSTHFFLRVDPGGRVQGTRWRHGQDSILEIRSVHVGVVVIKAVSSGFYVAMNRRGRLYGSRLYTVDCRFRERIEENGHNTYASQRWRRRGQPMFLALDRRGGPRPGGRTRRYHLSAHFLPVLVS
UCH37 DUB inh = blocks the human deubiquitinase UCH37; purified proteasome/UCH37, Ub-AMC cleavage fluorescence; inhibition, % (no concentration beside the values); 330,000 compounds, 0.33% hits; AID 588478;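 active = mean of two replicates above 20%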;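 also: 0% = compound-free wells with enzyme and 100% = wells lacking proteasome; stock transfer was 100 nL into about 20 µL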
Target sequence (Q9Y5K5 whole entry, looked up): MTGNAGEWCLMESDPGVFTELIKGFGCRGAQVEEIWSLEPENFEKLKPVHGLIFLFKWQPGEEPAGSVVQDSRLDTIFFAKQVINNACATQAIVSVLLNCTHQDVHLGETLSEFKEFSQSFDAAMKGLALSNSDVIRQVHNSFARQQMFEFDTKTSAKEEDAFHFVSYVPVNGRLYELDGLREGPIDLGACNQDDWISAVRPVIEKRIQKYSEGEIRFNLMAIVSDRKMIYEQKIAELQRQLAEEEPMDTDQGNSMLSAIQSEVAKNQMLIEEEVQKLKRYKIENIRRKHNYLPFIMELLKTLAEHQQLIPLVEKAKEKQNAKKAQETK
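Material: Human UCH37 enzyme supplied as purified proteasome complex | Schedule: 30 min compound-proteasome preincubation then 25 min substrate reaction, room temperature | Detection: AMC fluorescence from Ub-AMC cleavage, excitation 355 nm, emission 460 nm | Benchmarks: Wells without proteasome as full block, compound-free enzyme plus substrate as uninhibited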
RanGTP-Impb inh = inhibitors of RanGTP-importin-beta interaction, primary screen, biochemical, FRET, CFP-Ran, YFP-importin-beta, homogeneous. cell-free CFP-Ran/YFP-importin-beta FRET ratio. inhibition, % (concentration not given with the values). 300,000 compounds, 1.1% hits. AID 2216;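 active = most replicates above 15%; inconclusive = exactly half above 15%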;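 also: 0% = DMSO wells and 100% = Ran loaded with GDP instead of GTP; wells of about 40 µL received 100 nL stock; the first replicate is given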
* = called active by the depositor; i = inactive; ? = inconclusive; / = not tested or not shown; + = active, no number; & = joins results of further samples.

SMILES	HNF4A DNA FP	MLL AF4-AF9 inh	Vif A3G	E coli growth	FGF22 binding	UCH37 DUB inh	RanGTP-Impb inh
COc1ccc(S(=O)(=O)Nc2ccccc2C(=O)N2CCOCC2)cc1C	2.0	-11	/	0.7	i	6.4	?
Cc1cc(NC(=S)NC(=O)C2CC2)ccc1Br	0.7	/	/	0.73	/	0.0	0.3
CCCc1nc(-c2ccccc2O)n(-c2ccccc2)n1	1.3	/	-5%	0.69	/	-0.6	0.5
CNC(=S)N1CCC(C(=O)c2ccc(Cl)cc2)CC1	-0.2	0.2	/	/	i	/	/
Cc1ccc(S(=O)(=O)Nc2ccc(Nc3ccccc3)cc2)cc1	4.8	4.3	-3%	0.65	i	6.1	-4.1
Cc1ccc(O)c(C2=NOC(O)(C(F)(F)F)C2)c1 (stereo not drawn)	-0.7	/	-11%	0.69	/	-1.6	0.7
Cc1cccc(C(=O)Nc2nnc(SCC(=O)NC3CC3)s2)c1	2.6	0.8	/	0.69	i	4.8	-0.5
O=C1C(O)=C(O)C(=O)c2ccccc21	-3.5	-10	/	0.68	i	72*	/
CCOc1cc(C(=O)Nc2ccccc2F)cc(Br)c1OCC	0.9	1.2	4%	0.71	i	1.3	2.0
c1ccc(-n2nnnc2SCc2cn3cccnc3n2)cc1	-3.2	/	-1%&1%	0.7	/	-156	2.8
Cc1ccc2c(c1)c1c3n2CCN(C=O)C3CCC1 (stereo not drawn)	6.4	6.5	/	0.63	i	-5.2	-4.7
O=C(O)c1ccc2c(=O)n3c(nc2c1)/C(=C/c1ccc(OC(F)F)cc1OC(F)F)CC3	0.4	2.6	13%	0.69	i	-35	4.5
COC(=O)c1c(NC(=O)c2ccco2)sc2c1C(C(=O)OC)CC2 (stereo not drawn)	0.8	/	-4%	0.68	/	-3.5	6.9
CC(NS(=O)(=O)c1ccc(OCC(=O)N2CCOCC2)c(Cl)c1)c1ccccc1 (stereo not drawn)	-1.4	/	4%&2%	0.78	/	2.9	2.1
O=C1CN(C(=O)OCc2ccccc2)c2ccccc2N1	2.0	/	30%	0.73	/	-0.5	1.7
CCN(CC)S(=O)(=O)c1ccc(NC(=O)COC(=O)c2ccc(-n3nc(C)cc3C)cc2)cc1	1.4	4.9	?	0.7	i	0.4	/
Cc1cccc(NC(=O)c2cccc(NC3=NC4CS(=O)(=O)CC4S3)c2)c1 (stereo not drawn)	0.0	?	/	0.67	i	1.3	3.9
COc1ccc(-c2csc(Nc3ccc(S(=O)(=O)Nc4cc(OC)nc(OC)n4)cc3)n2)cc1	-2.2	/	/	0.68	/	-7.2	1.3
CCOc1ncccc1C(=O)NCc1ccccc1	/	/	-3%	0.68	/	3.8	1.3
Cc1ccc(-c2nc(CS(=O)(=O)CC(=O)NC3CC3)c(C)o2)cc1	2.5	-0.3	/	0.68	i	1.6	-1.4
CCOc1ccc(S(=O)(=O)NCCC2=CCCCC2)c2ccccc12	0.8	/	-2%	0.68	/	1.7	?
Cc1ccc(NC(=S)NCCN2CCOCC2)cc1F	0.5	0.4	3%	0.71	i	4.9	4.3
CC1=C(C(=O)N2CCOCC2)CC(CC(=O)NCc2cccc3ccccc23)C(=O)N1Cc1ccccc1 (stereo not drawn)	1.4	4.6	-3%	/	i	/	/
CCOc1ccc(CCNC(=O)COC(=O)/C=C/c2ccc(C)o2)cc1OCC	-2.6	-1.1	/	0.68	i	4.7	-1.4
CCN(CC)CCn1c(=N)n(CCOc2ccccc2)c2ccccc21	2.2	/	20%	0.7	/	-1.1	2.6
COc1ccc(Br)cc1/C=N/Nc1ccc(Cl)c(C(=O)O)c1	-1.2	-0.6	-3%	/	/	/	6.5
COc1ccc(SCCCn2c(=O)c3c(ncn3C)n(C)c2=O)cc1	-0.8	-13	/	0.67	i	3.1	-6.8
O=C(N/N=C/c1ccc[nH]1)c1ccc([N+](=O)[O-])cc1	2.2	-8.4	3%	/	i	/	-2.7
O=C(Nc1ccc(C(=O)N2CCCCC2)cc1)c1ccc(Br)cc1	-1.6	/	-3%	0.72	/	-0.5	4.3
COc1ccc([N+](=O)[O-])cc1NC(=O)CCS(=O)(=O)c1ccc(Br)cc1	-11	-7.4	23%	/	i	/	-2.3
Cc1cccc(C)c1Nc1nnc(SCC(=O)Nc2ncc(C(F)(F)F)cc2Cl)s1	2.2	/	2%	0.66	/	1.5	-1.8
CCOC(=O)c1c(C)[nH]c(C=C2C(=O)CCCC2=O)c1O	-6.2	/	25%	0.66	/	4.2	-2.2
c1ccc(-c2noc(C34CC5CC(CC(C5)C3)C4)n2)cc1	-0.4	/	5%	0.66	/	4.9	-4.7
CCNc1ccc(S(N)(=O)=O)cc1[N+](=O)[O-]	-1.3	/	/	0.7	/	5.2	9.8
CC(=O)c1c(C)n([O-])c2cc(C)ccc2[n+]1=O	-0.8	/	2%	0.54*	/	-0.5	-0.4
Cc1ccc(NC(=O)CSc2nnc(Cn3c(=O)sc4ccccc43)n2C)cc1	-5.5	0.3	?	0.69	i	1.1	-3.7
CCN(CC(=O)Nc1c(F)cccc1F)C(=O)CNC(=O)C1CCCCC1	-3.6	-0.6	3%	0.69	i	-0.3	5.0
COC(=O)/C(=C1/Oc2cc(C)oc(=O)c2S1)C(F)(F)F	-3.6	-0.2	5%	/	i	/	?
Cc1nc2ccc(S(=O)(=O)N(C)CC(=O)N3CCc4ccccc4C3)cc2s1	5.3	/	3%	0.67	/	-2.7	1.3
Cc1csc2ncc(C(=O)NC(C)c3ccccc3)c(=O)n12 (stereo not drawn)	-3.1	-11	-3%	0.66	i	-240	2.8
Cn1cc(Cl)c(C(=O)OCC(=O)Nc2ccc(S(N)(=O)=O)cc2)n1	0.7	0.3	/	0.62	i	3.7	-2.3
CCOC(=O)CNC(=O)C1CCC(CNS(=O)(=O)c2cccc3nsnc23)CC1 (stereo not drawn)	-5.4	1.7	/	0.6	i	2.4	4.9
Cc1cc(Cl)ccc1OC(C)C(=O)Nc1ccc(C(=O)Nc2ccccc2C(=O)O)cc1 (stereo not drawn)	-3.6	-3.8	/	0.62	+	-0.5	4.5
Cc1ccc(N(CC(=O)NC2CCCCC2)C(=O)CNC(=O)c2ccco2)c(C)c1	1.8	0.7	/	0.69	i	3.1	1.5
CCCOc1ccc(N2C(=O)CC(N3CCN(c4ccccc4OC)CC3)C2=O)cc1 (stereo not drawn)	2.4	2.2	-1%	0.78	i	1.6	1.7
NC(c1csc(Nc2ccc(C(=O)c3ccccc3)cc2)n1)c1ccccc1Cl (stereo not drawn)	-0.3	3.3	/	/	i	/	/
OCCc1ccc(-c2ccc(Cl)cc2)o1	1.0	/	25%	0.67	/	4.4	3.3
CC(C)c1cc(NCCN2CCOCC2)n2c(nc3ccccc32)c1C#N	-0.7	-2.0	/	0.71	i	-61	/
O=C(CNC(=O)c1ccc(Cl)cc1Cl)OCc1nc2ccccc2s1	1.4	-5.3	/	0.74	i	0.6	-0.7
Cc1ccc(NC(=O)C2CCN(S(=O)(=O)c3ccc4[nH]c(=O)oc4c3)CC2)cc1F	-0.6	-1.0	/	0.7	i	2.3	-1.6
COCCCn1c(SC(C)C(=O)NC2CC2)nc2ccccc2c1=O (stereo not drawn)	-1.1	-31	11%	0.61	i	-0.4	3.9
Cc1ccc(C2CC2c2n[nH]c(=S)n2-c2ccc(C)cc2)cc1 (stereo not drawn)	15	0.0	0%	0.64	i	-0.1	-0.1
CCOC(=O)Cc1csc(NC(=O)CSc2ccc(Br)cc2)n1	3.0	/	5%	0.66	/	3.2	11
O=C(/C=C/Nc1ccc(F)c(Cl)c1)c1ccco1	-1.7	/	7%	/	/	2.2	?
CC1(C)CC(=O)C=C(NC2CCCC(O)C2)C1 (stereo not drawn)	1.3	1.2	/	/	i	0.2	-0.9
O=C(c1cc2c(s1)-c1ccccc1OC2)N1CCc2ccccc2C1	-2.8	-1.0	/	0.72	i	-266	5.2
O=C(Cc1cccs1)Nc1nnc(-c2ccncc2)s1	-0.6	/	-2%	0.71	/	-34	0.2
CN1CCN(C(=S)c2ccc([N+](=O)[O-])cc2)CC1	-4.0	0.9	/	0.7	i	6.1	-3.0
CC1=NNC(=O)C(CC(=O)Nc2ccc(Cl)c(Cl)c2)C1 (stereo not drawn)	1.5	/	/	0.68	/	4.9	-2.2
Cn1c2ccc(F)cc2c2nnc(SCCN3CCCCC3)nc21	-2.1	0.0	-1%	0.66	i	1.4	2.9

Of the compounds above, these have a furan ring, fused or not.
SMILES	HNF4A DNA FP	MLL AF4-AF9 inh	Vif A3G	E coli growth	FGF22 binding	UCH37 DUB inh	RanGTP-Impb inh
COC(=O)c1c(NC(=O)c2ccco2)sc2c1C(C(=O)OC)CC2 (stereo not drawn)	0.8	/	-4%	0.68	/	-3.5	6.9
CCOc1ccc(CCNC(=O)COC(=O)/C=C/c2ccc(C)o2)cc1OCC	-2.6	-1.1	/	0.68	i	4.7	-1.4
Cc1ccc(N(CC(=O)NC2CCCCC2)C(=O)CNC(=O)c2ccco2)c(C)c1	1.8	0.7	/	0.69	i	3.1	1.5
OCCc1ccc(-c2ccc(Cl)cc2)o1	1.0	/	25%	0.67	/	4.4	3.3
O=C(/C=C/Nc1ccc(F)c(Cl)c1)c1ccco1	-1.7	/	7%	/	/	2.2	?

New compounds follow
SMILES	HNF4A DNA FP	MLL AF4-AF9 inh	Vif A3G	E coli growth	FGF22 binding	UCH37 DUB inh	RanGTP-Impb inh
Cc1cc(N2CCOCC2)nc2ccc(NC(=O)CCC(=O)N3CCC(C)CC3)cc12	5.5	/	19%	0.71	/	-357	-2.2
O=C(Nc1ccccn1)c1ccc2c(c1)OCCO2	-1.2	-4.8	?	0.65	i	1.4	2.8
Cc1ccc(Nc2c([N+](=O)[O-])c(=O)n(C)c3ccccc23)cc1C	0.8	12	-2%	0.72	i	2.6	-2.9
Cc1ccccc1NC(=S)N(Cc1cccnc1)Cc1ccccc1Cl	-2.0	3.7	-6%	0.68	i	4.7	-3.4
Cc1[nH]nc(N=Cc2c(O)n(C)c(=O)n(C)c2=O)c1-c1ccccc1	/	/	/	0.7	/	-150	-14
O=C(CNS(=O)(=O)c1c(F)cccc1F)NC1CCCc2ccccc21 (stereo not drawn)	-2.8	3.9	-2%	0.68	/	1.2	/
FC(F)(F)c1nnc2ccc(Cl)nn12	-3.4	-0.7	-1%	0.63	i	2.3	/
COc1ccc(C2=CN3CCCCC3CC2=O)cc1OC (stereo not drawn)	-0.9	-0.7	/	0.63	i	1.9	/
Cc1ccc(N2CC(C(=O)Nc3nnc(SCC(=O)NCC4CCCO4)s3)CC2=O)cc1C (stereo not drawn)	-18	-1.3	/	0.7	i	8.0	2.5
O=C(c1ccccc1Br)N1CCCC(c2nc(-c3cccs3)no2)C1 (stereo not drawn)	-0.2	-2.0	-2%	0.7	i	0.2	-0.9
COc1ccccc1CC(=O)Nc1cc(Cl)ccc1O	-1.0	/	12%	0.64	/	4.6	-1.7
CCN(C[C@H]1N[C@@](Cc2ccccc2)(C(=O)OC)[C@H]2C(=O)N(Cc3ccccc3)C(=O)[C@@H]12)C(C)=O	-0.8	-3.7	13%	0.69	i	2.8	/
O=C(c1c(O)cc(O)cc1O)C1c2c(cc(O)c3c2O[C@H](c2ccc(O)cc2)[C@@H](O)C3)OC1c1ccc(O)cc1 (stereo partly drawn)	4.9	12	/	/	+	/	/
O=C(NC1CCN(S(=O)(=O)c2ccc(F)cc2)CC1)c1ccc(F)cc1	1.3	-1.0	/	0.68	i	0.4	-4.6
Cc1ccc2c(c1)C1(OCCCO1)C(=O)N2CC(=O)NN	4.5	/	/	0.64	i	2.9	-1.3

Not all compounds are listed, so the mix of outcomes need not match the whole.
